AF4-AF9 inh – inhibitors of AF4 peptide binding to AF9, primary screen, biochemical, AlphaScreen, biotin-AF4 peptide, FLAG-AF9, single point; inhibition, % at 10 µM; actives 0.47% (n = 350,000); AID 651704, 2012; Protein AF-9 (Homo sapiens), P42568;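 active = every replicate reaching a set inhibition limit, whatever the replicate mean, cut at about 25% in these data; inconclusive = mean inhibition reaches that limit but some replicates miss it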;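 also: 0% = plate neutral control median and 100% = total signal loss; the record names both 10 and 1 µM as test concentration; the first replicate is given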
E coli growth – E. coli growth inhibition, primary screen, OD600; Escherichia coli growth, 23 h; active compounds read low; OD600 absorbance (concentration not given with the values); actives 0.21% (n = 330,000); AID 1053175, 2014;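 active = OD600 absorbance below the run mean of sample wells minus 3.6 SD, in any replicate, cut at about 0.56 in these data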;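 also: stock transfer was 300 nL into about 60 µL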
Vif TR-FRET – inhibitors of Vif binding to APOBEC3G peptide, primary screen, biochemical, TR-FRET, GST-Vif 1-94, biotin-A3G peptide, dose response retest (AID 1117319). TR-FRET GST-Vif / biotin-A3G peptide binding; higher % means a stronger effect; test concentration not given here; strong numbers were not always called active. inhibition, %; hits with a dose series show IC50 in µM. actives 0.57% (n = 260,000);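 active = above the screen mean plus three standard deviations and confirmed in dose response; inconclusive = results disagree or hit not tested in dose response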;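 also: Vif residues 1-94 fused to GST binding biotinylated APOBEC3G peptide 110-148; 0% = full assay without inhibitor and 100% = GST in place of GST-Vif; retest series ran down from 100 µM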
RanGTP-Imp inh – inhibitors of RanGTP-importin-beta interaction, primary screen, biochemical, FRET, CFP-Ran, YFP-importin-beta, homogeneous | Ran GTPase (GTP-bound) - importin-beta complex | cell-free CFP-Ran/YFP-importin-beta FRET ratio | actives 1.1% (n = 300,000) | inhibition, % (concentration not given with the values);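 active = most replicates above 15%; inconclusive = exactly half above 15%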;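 also: 0% = DMSO wells and 100% = Ran loaded with GDP instead of GTP; wells of about 40 µL received 100 nL stock; the first replicate is given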
FGF22 binding – binders of human FGF22 protein, primary screen, FGF22 synaptogenesis inhibitor project, biophysical, thermal shift, single point. Fibroblast growth factor 22 (Homo sapiens), Q9HCT0. recombinant FGF22 thermal shift, SYPRO orange fluorescence; percent of sucrose octasulfate shift, DMSO zero. calls only at 9.99 µM. actives 1.5% (n = 340,000). AID 651658, 2012;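 active = melting point raised past a set limit in the mean and every replicate; inconclusive = no clear call; three in four hits are not shown here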
Target sequence (Q9HCT0 whole entry, looked up): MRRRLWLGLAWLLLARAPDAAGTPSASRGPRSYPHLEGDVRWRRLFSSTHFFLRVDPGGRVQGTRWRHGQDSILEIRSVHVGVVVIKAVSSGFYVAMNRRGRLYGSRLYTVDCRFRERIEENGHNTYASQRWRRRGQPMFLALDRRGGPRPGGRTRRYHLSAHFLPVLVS
HNF4A DNA FP – change in binding of human HNF4A to DNA, primary screen, biochemical, fluorescence polarization, FITC-DNA; AID 1224865, 2016; 1 h; actives 0.3% (n = 360,000); activity change, % at 10 µM; Hepatocyte nuclear factor 4-alpha (Homo sapiens), P41235; in the data active = activity change above about 30%, passing the limit was not always enough;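 also: controls were the assay level and a saturating level of protein; the project sought stronger binding though the title names inhibitors; some compounds called inactive have numbers as strong as hits; positive values seem to mean higher polarization but the record does not say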
Target sequence (P41235 whole entry, looked up): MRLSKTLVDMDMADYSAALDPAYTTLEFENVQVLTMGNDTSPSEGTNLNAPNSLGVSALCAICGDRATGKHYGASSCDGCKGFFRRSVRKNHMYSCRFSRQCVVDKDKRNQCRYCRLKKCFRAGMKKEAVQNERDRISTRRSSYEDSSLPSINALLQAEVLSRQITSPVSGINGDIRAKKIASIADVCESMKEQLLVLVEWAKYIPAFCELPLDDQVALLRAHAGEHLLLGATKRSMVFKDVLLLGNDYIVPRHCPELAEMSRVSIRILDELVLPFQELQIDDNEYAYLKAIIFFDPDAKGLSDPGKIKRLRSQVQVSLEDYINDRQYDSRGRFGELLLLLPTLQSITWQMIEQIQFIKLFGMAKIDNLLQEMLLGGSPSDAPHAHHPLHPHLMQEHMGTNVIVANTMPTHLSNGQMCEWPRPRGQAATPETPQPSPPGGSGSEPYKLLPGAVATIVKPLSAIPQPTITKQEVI
UCH37 DUB inh – inhibitors of human UCH37 deubiquitinase, primary screen, biochemical, Ub-AMC cleavage, fluorescence; Ubiquitin carboxyl-terminal hydrolase isozyme L5 (Homo sapiens), Q9Y5K5; purified proteasome/UCH37; inhibition, % (no concentration beside the values); actives 0.33% (n = 330,000);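 active = mean of two replicates above 20%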;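 also: 0% = compound-free wells with enzyme and 100% = wells lacking proteasome; stock transfer was 100 nL into about 20 µL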
Target sequence (Q9Y5K5 whole entry, looked up): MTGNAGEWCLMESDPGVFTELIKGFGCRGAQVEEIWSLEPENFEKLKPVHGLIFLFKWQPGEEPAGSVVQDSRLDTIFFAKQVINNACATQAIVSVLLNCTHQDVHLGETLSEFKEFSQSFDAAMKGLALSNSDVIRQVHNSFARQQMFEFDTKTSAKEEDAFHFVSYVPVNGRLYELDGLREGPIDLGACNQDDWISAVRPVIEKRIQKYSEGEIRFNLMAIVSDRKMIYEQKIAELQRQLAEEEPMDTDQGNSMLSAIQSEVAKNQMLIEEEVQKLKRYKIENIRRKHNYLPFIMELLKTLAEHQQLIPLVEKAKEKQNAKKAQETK
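Material: Human UCH37 enzyme supplied as purified proteasome complex | Schedule: 30 min compound-proteasome preincubation then 25 min substrate reaction, room temperature | Detection: AMC fluorescence from Ub-AMC cleavage, excitation 355 nm, emission 460 nm | Benchmarks: Wells without proteasome as full block, compound-free enzyme plus substrate as uninhibited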
Active calls of the source: *; i = inactive; ? = inconclusive; nt = not tested or not shown; & = joins results of further samples.

SMILES | AF4-AF9 inh | E coli growth | Vif TR-FRET | RanGTP-Imp inh | FGF22 binding | HNF4A DNA FP | UCH37 DUB inh
COc1ccc(CN2C(=O)c3ccccc3C2c2nnnn2-c2c(C)cccc2C)cc1OC (stereo unspecified) | 2.5 | nt | nt | nt | i | 1.3 | nt
C[C@@]12CCC[C@@](C)(C(=O)O)C1CC[C@@]13C[C@@H](NCc4ccccc4)[C@@](C)(CCC12)C3 (stereo partly specified) | 3.0 | nt | nt | nt | i | 3.5 | 2.4
Cc1ccccc1C(=O)NCC(c1ccco1)N1CCc2ccccc21 (stereo unspecified) | 0.8 | 0.66 | -4% | 0.8 | i | 1.1 | 3.1
O=C(O)C1C2C=CC(C2)C1C(=O)Nc1cccc(C(=O)N2CCCCC2)c1 (stereo unspecified) | -4.3 | 0.66 | 0% | -0.6 | i | -2.6 | 0.2
O=c1[nH]cnc2c1nc(NCc1ccccc1)n2C1O[C@@H](CO)[C@H](O)[C@@H]1O (stereo partly specified) | -0.1 | 0.7 | nt | ? | i | -1.9 | 3.8
O=C(COC(=O)c1cc(S(=O)(=O)N2CCOCC2)ccc1F)Nc1ccccc1C(F)(F)F | 2.2 | nt | -5% | nt | i | 3.1 | nt
Cc1ccc(S(=O)(=O)C2(S(=O)(=O)c3ccc(C)cc3)CC2)cc1 | 0.9 | 0.64 | 3% | 0.1 | i | -1.6 | -1.7
Cc1nnc(SCC(=O)Nc2ccccc2)n(N)c1=O | -0.2 | 0.69 | 0% | 2.7 | nt | -0.7 | -0.4
CCn1c(SCC(=O)C(C)(C)C)nnc1-c1cccnc1 | 4.5 | 0.69 | 3% | -1.7 | i | 5.0 | 2.6
CCC(=O)n1nc(NCc2ccccc2OC)nc1NCc1ccccc1OC | nt | 0.68 | 0% | 3.9 | nt | -0.3 | 0.8
CC(C)C(C)NC(=O)CN1C(=O)NC2(CCc3ccccc32)C1=O (stereo unspecified) | 3.6 | 0.69 | ? | -0.1 | i | -1.0 | 0.6
CCc1nccn1-c1cc(C(C)(C)C)nc2c(-c3ccc(Cl)cc3)cnn12 | 4.1 | 0.71 | nt | -0.3 | i | 1.7 | -9.5
C/C(=N\NC(=O)c1cc(-c2cccc([N+](=O)[O-])c2)n[nH]1)c1ccc(F)cc1 | 2.1 | nt | nt | 2.6 | i | 0.7 | nt
CCn1c(SCC(=O)NCc2ccccc2)nc2ccccc2c1=O | -48 | 0.68 | -4% | -4.1 | i | 5.2 | 1.2
CC1Cc2nc(SCC(=O)Nc3ccc4c(c3)OCO4)n(Cc3ccccc3)c(=O)c2S1 (stereo unspecified) | nt | 0.68 | 0% | 0.9 | nt | -0.4 | 2.6
COC(=O)C1=C(C)NC(C)=C(C(=O)OC)C1C(=O)OCc1nnc(-c2ccccc2)o1 | -2.0 | 0.69 | -5% | 3.0 | i | 1.2 | -43
COC(=O)[C@H](C)NC(=O)Nc1cccc(C(F)(F)F)c1 | nt | 0.74 | 8% | 3.3 | nt | -0.7 | -2.0
CC(C)=CCN1CCN(Cc2nc(-c3ccccc3)cs2)CC1CCO (stereo unspecified) | -9.5 | 0.69 | -7% | ? | i | 0.6 | 2.2
Cn1nc(C(F)(F)F)c(-c2ccc(Br)cc2)c1NC(=O)c1ccco1 | -3.0 | 0.66 | 26% | 4.8 | i | -3.7 | 4.6
Nc1nc(-c2ccccc2)c(-c2ccccc2)n1N | 3.6 | 0.65 | nt | -40 | i | 17 | -45
COc1cc([C@@H]2OC[C@@H]3[C@H]2CO[C@@H]3c2ccc3c(c2)OCO3)ccc1O | 1.4 | nt | nt | nt | i | 0.5 | 0.6
CCCNC(=O)NC1CCCc2ccccc21 (stereo unspecified) | 0.4 | 0.69 | 14% | nt | i | -1.8 | 1.6
CC(=O)CCc1oc2ccc(NC(C)=O)cc2c1-c1ccc(C)o1 | nt | nt | ? | -2.3 | nt | 4.1 | -0.4
CCOC(=O)N1CCN(C(=O)C2CCCN(S(=O)(=O)c3ccc(C)cc3)C2)CC1 (stereo unspecified) | 2.0 | 0.73 | >100µM* | 2.9 | i | 2.2 | -1.0
CCOc1ccc2cc(S(=O)(=O)N3CCCCC3)ccc2c1 | 1.0 | 0.73 | nt | 9.1 | i | 2.0 | 2.9
Cc1ccc(Cc2c(-c3ccc(C)cc3)nc3c4ccccc4ccn23)cc1 | -1.2 | nt | 2% | nt | i | 1.1 | nt
O=C(COC(=O)CSc1ccc([N+](=O)[O-])cc1)NCCc1ccccc1 | 7.9 | 0.7 | -2% | -4.0 | i | -1.0 | 3.7
N#Cc1nnn2c1nc(N)c1c(F)cccc12 | -1.9 | 0.69 | nt | 1.6 | i | -1.4 | -46
O=C(Nc1nc2c(s1)CCc1ccccc1-2)c1cccs1 | nt | 0.75 | -3%&-10% | -1.3 | nt | 3.8 | -3.5
FC(F)(F)c1cc(CCN2CCNC[C@H]2Cc2cccc3ccccc23)cc(C(F)(F)F)c1 | 4.1 | nt | nt | 1.8 | i | 8.1 | nt

Shown tab-delimited: part of the list above.
smiles	AF4-AF9 inh	E coli growth	Vif TR-FRET	RanGTP-Imp inh	FGF22 binding	HNF4A DNA FP	UCH37 DUB inh
CCn1c(SCC(=O)NCc2ccccc2)nc2ccccc2c1=O	-48	0.68	-4%	-4.1	i	5.2	1.2
CCCNC(=O)NC1CCCc2ccccc21 (stereo unspecified)	0.4	0.69	14%	nt	i	-1.8	1.6
COc1ccc(CN2C(=O)c3ccccc3C2c2nnnn2-c2c(C)cccc2C)cc1OC (stereo unspecified)	2.5	nt	nt	nt	i	1.3	nt
O=c1[nH]cnc2c1nc(NCc1ccccc1)n2C1O[C@@H](CO)[C@H](O)[C@@H]1O (stereo partly specified)	-0.1	0.7	nt	?	i	-1.9	3.8
Cc1ccccc1C(=O)NCC(c1ccco1)N1CCc2ccccc21 (stereo unspecified)	0.8	0.66	-4%	0.8	i	1.1	3.1

The results go on.
SMILES | AF4-AF9 inh | E coli growth | Vif TR-FRET | RanGTP-Imp inh | FGF22 binding | HNF4A DNA FP | UCH37 DUB inh
COc1ccc(-c2c(C(=O)c3ccccc3)[nH]c(N)c2C(N)=O)cc1OC | 0.0 | nt | nt | nt | i | -0.9 | nt
COc1ccccc1CN1C(=O)CN(C2CCCCCC2)C(=O)C1c1ccc(F)cc1 (stereo unspecified) | nt | 0.71 | 0% | ? | nt | 2.0 | -0.8
CCOC(=O)C1CCCN(C(=O)c2ccc(NC(=O)CC3SC(N4CCCC4)=NC3=O)cc2)C1 (stereo unspecified) | 3.2 | 0.64 | 2% | -1.4 | i | -2.9 | 4.8
COc1ccc(NC(=O)CC2C(=O)N(c3ccccc3)C(=O)N2CCc2cccs2)cc1 (stereo unspecified) | 10.0 | 0.63 | 15% | -2.8 | i | -0.9 | 4.3
CSc1nsc(SC)c1NC(=O)Nc1ccccn1 | nt | 0.73 | 8% | -5.2 | nt | 0.2 | 2.8
Cn1c(=O)c2c(nc3n2CC(COc2ccc(Cl)cc2)O3)n(C)c1=O (stereo unspecified) | 2.0 | 0.71 | nt | -2.9 | i | -3.2 | 2.0
Cc1ccc(C23CC4CC(CC(C(=O)NCC(=O)O)(C4)C2)C3)cc1 | -3.5 | 0.67 | -1% | 1.4 | i | -1.0 | 2.8
Cc1cc(C)c(C#N)c(N2CCCC2)n1 | 0.3 | 0.68 | -5% | -2.6 | nt | 2.1 | -334
CCOC(=O)CN1C(=O)S/C(=C/C=C/c2ccc(N(C)C)cc2)C1=O | nt | 0.74 | 3% | -19 | nt | 46* | 3.4
CC(=O)c1c(C)[nH]c(C(=O)OCC(=O)NCc2ccccc2)c1C | -3.3 | nt | -2% | nt | i | -0.1 | nt
O=C(CSS(=O)(=O)O)N1CCN(C(=O)c2ccoc2)CC1 | -13 | 0.59 | -6% | 1.3 | i | -2.7 | 8.1
COc1ccc(CN(CCN(C)C)Cc2ccccc2)c(OC)c1 | nt | 0.67 | 5% | 3.2 | nt | -2.5 | 2.1
O=C(Cc1ccc(F)cc1)Nc1nnc(SCC(=O)NC2CCCC2)s1 | 1.2 | 0.76 | ? | 27* | nt | -3.0 | -0.6
O=[N+]([O-])c1ccc(-c2csc(Nc3ccccc3)[n+]2Cc2ccccc2)cc1 | nt | 0.72 | nt | -0.7 | nt | -0.3 | 1.0
Cc1cc(OCC(=O)NNC(=O)CCc2ccccc2)ccc1Br | -9.6 | 0.73 | nt | -1.2 | i | 1.7 | 4.3
CCOC(=O)c1cc(S(=O)(=O)N2CCN(C(=O)OCC)CC2)cn1C | nt | 0.74 | 6% | -0.7 | nt | -3.7 | 1.9
Cc1cccc(C(=O)N[C@H](C(=O)Nc2cccc(S(=O)(=O)N3CCCC3)c2)C(C)C)c1 | -0.3 | 0.69 | nt | -0.7 | i | -1.4 | 2.4
COc1ccc(C(=O)COC(=O)Cc2n[nH]c(=O)c3ccccc23)c(OC)c1 | -0.7 | 0.62 | -26% | 5.6 | i | 2.6 | -12
CCc1ccc(NC(=O)CSC2=C(C#N)C(c3ccc4c(c3)OCO4)CC(=O)N2)cc1 (stereo unspecified) | nt | 0.72 | nt | -1.9 | nt | 4.1 | 2.8
CCC(C(=O)NC1CCCCC1)N(C(=O)c1snc(C(N)=O)c1N)c1ccc(OC)cc1OC (stereo unspecified) | 11 | 0.64 | nt | -1.7 | i | -0.3 | -13
CCOC(=O)c1c(C)[nH]c(C(=O)CN2C(=O)NC(CC)(c3ccccc3)C2=O)c1C (stereo unspecified) | nt | 0.7 | 3% | 25 | nt | 0.3 | 4.4
Cc1ccc2c(c1)CCCN2CC(=O)Nc1cc(S(=O)(=O)N2CCCC2)ccc1Cl | 8.1 | 0.71 | -8% | nt | i | 12 | 20
O=C(CN1CCN(CC(=O)Nc2ccccc2Cl)CC1)Nc1ccc2c(c1)OCCO2 | nt | 0.71 | 0% | -2.5 | nt | -3.4 | 0.3
Cc1ccc(C(=O)OCc2nnc(-c3ccccc3)o2)cc1S(=O)(=O)N1CCOCC1 | 4.9 | 0.66 | 1% | 3.8 | i | 1.8 | 0.5
Cc1ccc(-n2nc3cc(C)c(NC(=O)c4cccnc4)cc3n2)cc1 | nt | 0.75 | 25% | 4.2 | nt | -0.4 | -0.5
O=C(C1CCCO1)N1CCN(C(=S)Nc2ccc(F)cc2)CC1 (stereo unspecified) | 5.0 | 0.68 | nt | -1.4 | i | 0.8 | 3.8
N#CC1(NC(=O)CSc2nc3ncc(Cl)cc3[nH]2)CCCCC1 | -2.9 | nt | nt | nt | i | 1.2 | nt
CCN(CC)S(=O)(=O)c1ccc(NS(=O)(=O)c2ccc(OC)c([N+](=O)[O-])c2)cc1 | -3.1 | 0.71 | nt | 4.3 | i | -2.9 | 6.8
COC(=O)C1C(=O)C2=C(CC1C)NC(C)=C(C(=O)OC1CCCC1)C2c1ccc(N(C)C)cc1 (stereo unspecified) | nt | 0.68 | 30%&7% | nt | nt | -0.2 | 2.3
CCn1c(/C=C/c2ccccc2)nc2ccccc21 | nt | 0.66 | -7% | 3.5 | nt | 2.6 | -274
CCOc1ccccc1NC(=O)C(=O)N/N=C/c1ccc([N+](=O)[O-])cc1 | -0.6 | nt | 2% | ? | i | -0.3 | nt

Screening results (PubChem)

The list is partial. The share of hits here may be higher or lower than overall.
